# RanGTP-Impb inh: inhibitors of RanGTP-importin-beta interaction, primary screen, biochemical, FRET, CFP-Ran, YFP-importin-beta, homogeneous; AID 2216, 2009; 300,000 compounds, 1.1% hits; inhibition, % (test concentration not listed); Ran GTPase (GTP-bound) - importin-beta complex; cell-free CFP-Ran/YFP-importin-beta FRET ratio;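 active = most replicates above 15%; inconclusive = exactly half above 15%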;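 also: 0% = DMSO wells and 100% = Ran loaded with GDP instead of GTP; wells of about 40 µL received 100 nL stock; the first replicate is given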
# AF4-AF9 inh: inhibitors of AF4 peptide binding to AF9, primary screen, biochemical, AlphaScreen, biotin-AF4 peptide, FLAG-AF9, single point; Protein AF-9 (Homo sapiens), P42568; inhibition, % at 10 µM; 350,000 compounds, 0.47% hits; AID 651704, 2012;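 active = every replicate reaching a set inhibition limit, whatever the replicate mean, cut at about 25% in these data; inconclusive = mean inhibition reaches that limit but some replicates miss it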;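 also: 0% = plate neutral control median and 100% = total signal loss; the record names both 10 and 1 µM as test concentration; the first replicate is given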
# Bfl-1 A1 inh: caspase 3/7 activation in MEF A1-2A-BIM cells, primary screen, A1 inhibitor project, cell-based, luminescence, HTS. 330,000 compounds, 0.066% hits. Caspase-Glo 3/7 luminescence, 3 h; percent of clofoctol response, vehicle zero. caspase activation, % (test concentration not listed). AID 2462, 2010;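 active = over half of replicate activation scores above 10%, or exactly half above 10 with the replicate mean above 10; inconclusive = replicate mean below 10 yet half the replicates above 10; inactive = over half of replicates below 10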;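 also: wells of about 30 µL received 50 nL stock; many hits fall short of the cut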
# Calb FLC: C. albicans growth inhibition with fluconazole, primary screen, CaCi-2 strain, Alamar Blue fluorescence. AID 1979, 2009. C. albicans CaCi-2 (fluconazole-resistant clinical isolate) + fluconazole, 48 h. growth inhibition, % (concentration not given with the values). 300,000 compounds, 0.57% hits;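 active = most replicates above 75%; inconclusive = exactly half above 75%; inactive = most below 75%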;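 also: all wells also contain fluconazole at 8 µg/ml as a sub-toxic cotreatment; 0% = median of DMSO wells and 100% = median of geldanamycin control wells; wells of about 8 µL received 7.5 nL stock; the first replicate is given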
# Beta cell apopt: inhibitors of cytokine-induced beta cell apoptosis, primary screen, luminescence. INS-1E cytokine-induced death, ATP luminescence, 48 h; percent of positive-control rescue, neutral wells zero. protection from apoptosis, % (concentration not given with the values). 300,000 compounds, 0.8% hits;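 active = all replicates at 75% or more, or half of them and the mean; inconclusive = half reach 75% but not the mean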;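 also: 0% = cytokine-treated negative control wells and 100% = positive control rescue; higher means more ATP so stronger rescue from cytokine killing; wells of about 40 µL received 100 nL stock; the first replicate is given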
# LANA-H2B inh: blockers of LANA interaction with H2A/H2B – biochemical, FP readout, HTS, primary screen; AID 2629, 2010; Protein LANA1 (Human herpesvirus 8 type P (isolate GK18)), Q9QR71; inhibition, % (no concentration beside the values); cell-free LANA-H2A/H2B peptide, fluorescence polarization; 320,000 compounds, 0.6% hits; in the data active = inhibition mostly above about 10%, no sharp cut-off; inactive = mostly below about 6.7%;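 also: stock transfer was 7.5 nL into about 10 µL; 0% = median of vehicle wells and 100% = median of positive control wells; one replicate is shown; the record names a cut of 25% in any replicate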
# Target sequence (Q9QR71 whole entry, looked up): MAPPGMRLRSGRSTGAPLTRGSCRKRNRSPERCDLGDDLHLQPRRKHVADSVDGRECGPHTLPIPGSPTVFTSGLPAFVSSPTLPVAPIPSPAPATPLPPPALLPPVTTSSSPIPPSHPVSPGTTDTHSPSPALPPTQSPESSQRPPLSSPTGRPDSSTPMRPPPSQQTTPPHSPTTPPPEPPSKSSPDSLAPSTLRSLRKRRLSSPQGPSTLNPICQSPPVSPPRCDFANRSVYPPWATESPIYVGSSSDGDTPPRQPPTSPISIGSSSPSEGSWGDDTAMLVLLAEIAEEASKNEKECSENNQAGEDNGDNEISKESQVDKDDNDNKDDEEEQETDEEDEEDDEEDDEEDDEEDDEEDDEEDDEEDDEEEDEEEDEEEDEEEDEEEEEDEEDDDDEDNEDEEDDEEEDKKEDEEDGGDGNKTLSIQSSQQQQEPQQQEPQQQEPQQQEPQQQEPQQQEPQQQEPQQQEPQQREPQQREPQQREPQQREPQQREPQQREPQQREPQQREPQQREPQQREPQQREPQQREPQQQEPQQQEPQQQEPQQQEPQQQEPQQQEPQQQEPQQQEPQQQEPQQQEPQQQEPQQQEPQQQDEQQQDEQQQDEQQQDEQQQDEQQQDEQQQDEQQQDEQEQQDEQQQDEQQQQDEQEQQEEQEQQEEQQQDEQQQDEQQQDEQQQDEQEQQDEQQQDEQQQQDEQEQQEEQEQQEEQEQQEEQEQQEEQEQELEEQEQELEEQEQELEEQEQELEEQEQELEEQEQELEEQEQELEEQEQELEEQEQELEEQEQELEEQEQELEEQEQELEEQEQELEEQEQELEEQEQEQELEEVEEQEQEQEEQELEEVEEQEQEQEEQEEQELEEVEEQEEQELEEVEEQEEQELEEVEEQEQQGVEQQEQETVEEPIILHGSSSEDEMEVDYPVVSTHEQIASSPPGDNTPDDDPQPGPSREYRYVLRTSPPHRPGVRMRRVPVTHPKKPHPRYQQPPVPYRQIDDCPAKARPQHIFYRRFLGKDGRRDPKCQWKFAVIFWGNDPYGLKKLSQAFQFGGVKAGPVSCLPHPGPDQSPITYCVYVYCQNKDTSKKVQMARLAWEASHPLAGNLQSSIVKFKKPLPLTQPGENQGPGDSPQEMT
# Vif A3G: inhibitors of Vif binding to APOBEC3G peptide, primary screen, biochemical, TR-FRET, GST-Vif 1-94, biotin-A3G peptide, dose response retest (AID 1117319); TR-FRET GST-Vif / biotin-A3G peptide binding; higher % means a stronger effect; test concentration not given here; strong numbers were not always called active; Virion infectivity factor (Human immunodeficiency virus type 1 group M subtype B (isolate …; inhibition, %; hits with a dose series show IC50 in µM; 260,000 compounds, 0.57% hits;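 active = above the screen mean plus three standard deviations and confirmed in dose response; inconclusive = results disagree or hit not tested in dose response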;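 also: Vif residues 1-94 fused to GST binding biotinylated APOBEC3G peptide 110-148; 0% = full assay without inhibitor and 100% = GST in place of GST-Vif; retest series ran down from 100 µM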
# T cruzi repl: inhibitors of intracellular T. cruzi growth, primary screen, luminescence, NIH3T3 host cells | T. cruzi beta-gal in NIH3T3, 90 h | inhibition, % (no concentration beside the values) | 300,000 compounds, 1.4% hits;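 active = mean inhibition across valid replicates above about 55%, limit read from the data; inconclusive = mean below that limit but half or more replicates reach it; inactive = mean below it, under half of replicates reach it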;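 also: signal also drops with host cell toxicity which is not excluded here; 0% = plate median of DMSO wells and 100% = zero luminescence signal; higher percent means less beta-gal luminescence so fewer parasites; stock transfer was 50 nL into about 50 µL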
# Starred values were filed as active, the others as inactive; ? = inconclusive; nt = not tested or not shown; & = joins results of further samples; ! = a repeat was not active.
SMILES,RanGTP-Impb inh,AF4-AF9 inh,Bfl-1 A1 inh,Calb FLC,Beta cell apopt,LANA-H2B inh,Vif A3G,T cruzi repl
COc1ccccc1NC(=O)c1ccc2[nH]c(C)c(C)c2c1,-3.3,1.8,-2.7,-11,5,0.0,-1%,4
O=C(COc1cccnc1[N+](=O)[O-])NCc1cccs1,-4.9,-0.9,0.0,5,0,-0.9,nt,-2
O=C(CC1C(=O)NCCN1Cc1c(F)cccc1Cl)NC1CCCC1 (stereo not drawn),1.7,-2.0,-0.1,-11,-4,0.9,1%,-8
CC(OC(=O)/C=C/c1ccc(Br)cc1)C(=O)N1CCOCC1 (stereo not drawn),-1.8,0.0,0.0,-3,4,-7.4,nt,-1
Cc1cc2c(Nc3cccc(O)c3)ncnc2s1,2.7,1.6,-1.5,6,19,-8.6,nt,23
CCN1CCN(c2ccc([N+](=O)[O-])cc2C(=O)c2ccc(Cl)cc2)CC1,4.8,nt,-0.3,22,-9,4.1,5%,22
COc1ccc2c3c1O[C@H]1C[C@@H](O)C=C[C@@]31CCN(C)C2,1.8,-1.4,0.8,0,nt,-2.0,2%,0
CCC(Sc1nnc(-c2ccco2)n1C)C(=O)Nc1nnc(C)s1 (stereo not drawn),2.1,-4.0,0.2,-10,-1,-6.3,nt,3
Cc1sc(NC(=O)CN2CCN(c3ccccn3)CC2)c(C#N)c1C,1.9,nt,0.9,-12,4,-0.4,?,6
NC(=O)/C(=C\c1cccnc1)NC(=O)c1ccccc1,0.5,-1.7,0.5,1,-4,3.4,1%,-4
O=C(NCCc1ccc(C(F)(F)F)cc1)c1ccc2c(c1)OCO2,nt,-0.7,-0.5,nt,5,16*,-7%,nt
CCOC(=O)c1c(NC(=S)Nc2ccc(F)cc2)sc2c1CCC2,5.4,nt,0.4,-1,8,2.2,3%,-5
Cc1ccc(NC(=O)Nc2cc(C)on2)cc1,5.0,-2.4,0.2,14,-1,-1.1,-2%,3
Cc1occc1C(=O)N/N=C/C1=C(N2CCOCC2)C(=C\c2ccc(Cl)cc2Cl)/CC1,-0.5,-1.1,0.1,-9,3,2.5,7%,14
CC(C)CS(=O)(=O)C1=NSC2=NC(=O)/C(=C\c3ccc(OC(=O)c4ccco4)cc3)C(=N)N21,6.8,-0.7,-0.5,-6,-1,-2.4,nt,-11
O=C(Nc1nnc(COc2ccccc2)s1)C1CCN(S(=O)(=O)c2ccc(Cl)cc2)CC1,-3.2,nt,1.3,-2,-6,2.6,0%,-2
COc1ccc2c(C)cc(SCC(=O)NCC3CCCO3)nc2c1 (stereo not drawn),nt,-0.1,-0.4,nt,-3,-6.3,nt,nt
Cc1ccc(N(C(=O)c2ccco2)C(C(=O)NC2CCCC2)c2cccnc2)cc1 (stereo not drawn),-2.0,-6.8,0.6,-5,-6,2.1,nt,-7
Cc1c(/C=N/NC(=O)CNc2ccccc2)c2ccccn2c1C(=O)c1ccc(Cl)cc1,-1.3,nt,0.1,-2,1,-2.7,2%,24
Cn1cccc1C(=O)OCC(=O)NCCc1ccc(S(N)(=O)=O)cc1,nt,-2.4,0.2,nt,-7,2.7,5%,nt
S=C(Nc1ccc(Cl)c(Cl)c1)NC1CCCCC1,-3.0,-39,0.6,-21,37,-4.1,-6%,36
COc1ccccc1CN1CC(C(=O)N2CCC(OC)CC2)CCC1=O (stereo not drawn),-2.2,-4.5,-0.2,-3,-3,2.2,11%,0
O=C(NCCO)C(c1ccccc1)c1ccccc1,4.7,nt,?,19,-2,-0.2,-2%,7
Cc1ccc(C(=O)OCC(=O)Nc2ccc(S(N)(=O)=O)cc2)c(O)c1,3.0,-1.9,0.1,4,-5,-6.1,-10%,-8
CC1C(=O)N2CCCc3cc(S(=O)(=O)NCCc4ccccc4)cc1c32 (stereo not drawn),3.1,0.5,-0.8,2,-12,1.8,3%,-8
Nc1c(N(CCC2=CCCCC2)C(=O)C2CC2)c(=O)[nH]c(=O)n1Cc1ccccc1,-0.2,-1.0,-0.2,3,-1,-14,nt,5
CC(C)CN(C(=O)COC(=O)C12CC3CC(CC(O)(C3)C1)C2)C1CCS(=O)(=O)C1 (stereo not drawn),?,nt,0.1,-5,-1,2.8,8%,-8
CCOC(=O)C1CCN(c2cc3c(cc2NC(=O)c2ccccc2)n(C)c(=O)n3C)CC1,-17,-6.2,-1.2,-6,6,-2.0,nt,5
CC(C)C[C@H](NC(=O)c1nc[nH]c1C(=O)N1CCN(C(=O)OC(C)(C)C)CC1)C(=O)OCc1ccccc1,4.8,nt,?,-6,-2,0.0,-7%,1
Cc1c(Cl)ccc2c(C(=O)NC(C)c3ccncc3)cc(-c3ccncc3)nc12 (stereo not drawn),1.6,nt,0.2,7,9,-0.8,5%,50
Cc1cc(NC(=O)CCCC(=O)NCc2cccs2)no1,-3.9,nt,1.1,0,3,-3.0,11%,-1
O=C(NCC(=O)N(c1cccnc1)C(C(=O)NC1CCCCC1)c1ccccc1F)c1ccco1 (stereo not drawn),-1.8,-3.0,1.1,-6,-2,2.4,-2%,2
COc1ccc(N(C)C2=NS(=O)(=O)c3ccccc32)cc1,2.6,nt,1.0,-25,27,-1.7,1%,-5
Cc1ccc(C(=O)C[n+]2cc(-c3ccccc3)n3c2CCCCC3)cc1,4.1,-0.5,1.0&0.6,-21&38,80*!,-1.2&-3.8,-5%,65*!
CN(C)c1ccc(C(CNC(=O)Cc2cccc3ccccc23)N(C)C)cc1 (stereo not drawn),-1.4,17,-1.3,-24,-8,-0.5,nt,19
CN(c1ccccc1)S(=O)(=O)c1ccc(C(=O)Nc2nnc(C3=COCCO3)o2)cc1,-2.5,2.7,-0.3,?,-4,-0.9,-3%,-11
CN(C(=O)CSc1nnc(N)s1)C1CCCCC1,5.5,-10,0.5,-1,-1,-13,1%,-6
CCNc1nc(OCC)nc(N2CCC(Cc3ccccc3)CC2)n1,-0.4,nt,0.0,-16,35,-1.5,-4%,38
Cc1ccc(-c2nc3c(c(=O)c4ccccc4n3C)c(=O)n2Cc2ccco2)cc1,2.7,-1.2,-0.6,26,6,3.7,nt,23
Oc1ccccc1/C=N/n1c2ccccc2c2ccccc21,5.2,-2.3,1.4,-4,9,-8.0,-5%,-22
COc1ccc2[nH]c(C(=O)NCCN3CCOCC3)cc2c1,-1.5,nt,-0.8,2,-3,1.3,-6%,-26
CS(=O)(=O)NCCSCc1ccccc1,5.1,nt,0.2,13,-2,-3.8,-4%,-3
CCOC(=O)c1c(NC(=S)N2CCOCC2)sc2c1CCN(C(=O)OCC)C2,1.5,nt,0.0,1,24,2.1,-10%,43
Cc1c(-n2cc(C(=O)c3cc(F)ccc3O)cc(C#N)c2=O)c(=O)n(-c2ccccc2)n1C,?,-4.2,0.2,19,nt,-2.7,23%,10
CCOC(=O)CNC(=O)c1ccc(C#CC2(O)CCCCC2)cc1,2.4,-1.3,-0.3,-3,5,1.0,-8%,-3
CC(=O)Nc1ccc(N2C(=O)CC(c3ccccc3)CC2=O)cc1,-0.6,nt,0.3,0,-4,3.9,2%,-8
Brc1ccc2ncnc(NCc3cccnc3)c2c1,1.7,0.7,-0.9,-6,-5,1.7,-3%,10
CCOc1ccc(OCC(O)CN2CCc3ccccc3C2)cc1 (stereo not drawn),-2.1,3.2,1.2,-3,1,7.2,0%,3
CC(=O)c1sc(NC(=O)CN2C(=O)C3CCCCC3C2=O)nc1-c1ccccc1 (stereo not drawn),nt,-2.3,-1.4,nt,-3,1.1,-3%,nt
O=C(CSc1ncnc2nc[nH]c12)c1ccc([N+](=O)[O-])cc1,-1.1,-2.2,-0.7,-6,-7,-0.4,nt,7
CSC1=NCCN1C(=O)c1ccc(S(=O)(=O)N(C)C)cc1,0.4,-2.5,0.8,-5,-4,1.2,8%,-5
CSc1ccc(/C=N/NC(=O)CN2CCN(Cc3ccc(C)cc3)CC2)cc1,-7.9,nt,-2.4,4,-5,1.2,6%,-26
Cc1nn(-c2ccccc2)c(N2CCCC2)c1/C=N/NC(=S)Nc1cc(C(F)(F)F)ccc1Cl,2.1,nt,-0.2,-9,6,-3.1,nt,43
CC[C@H](CO)Nc1nc(Nc2cccc(Cl)c2)c2ncn(C(C)C)c2n1,-1.1,3.9,0.5,-7,62,4.5,3%,32
Cc1cc(NC(=O)COc2ccccc2C)ccc1NC(=O)c1cccs1,0.4,-0.5,-0.6,4,-4,0.0,nt,-17
CC(=O)c1cccc(CN2CCCC(N3CCN(c4ccccc4F)CC3)C2)c1 (stereo not drawn),3.1,4.6,-0.6,-7,1,-1.4,nt,51
CC(=O)c1ccc(OC(=O)c2cc3ccccc3oc2=O)cc1,-1.0,nt,0.0,-9,-5,-5.5,9%,-15
CCCCCCc1nc2ccccc2c(=O)n1NC(=O)c1c(O)c2c(n(CC(C)C)c1=O)CCCC2,0.4,nt,0.2,7,2,-2.4,-3%,?
Cc1cccc(N(CC(=O)Nc2c(C)n(C)n(-c3ccccc3)c2=O)S(C)(=O)=O)c1,-4.0,nt,-0.2,23,1,3.6,-5%,-12
COc1cccc(NC(=O)Nc2ccccc2SC)c1,-5.9,3.8,-5.9,1,-3,-6.5,nt,-4
# (further entries)
SMILES,RanGTP-Impb inh,AF4-AF9 inh,Bfl-1 A1 inh,Calb FLC,Beta cell apopt,LANA-H2B inh,Vif A3G,T cruzi repl
COc1ccc(SCC(=O)Nc2ccccc2Cl)cc1,-2.0,-2.4,0.7,20,-1,0.8,-4%,-6
Cn1ccnc1SCC(=O)Nc1ccc2c(c1)OCCO2,-0.9,-2.5,-1.0,0,0,3.1,nt,-1
Cc1ccc2nc(-c3cc(-c4ccccc4)no3)cn2c1,0.4,-1.4,-6.4,-10,-3,2.1,-17%,nt
CCOC(=O)CSc1nc(N)c2c3c(sc2n1)CCCC3,-1.7,nt,-0.2,11,-5,1.1,-6%,-1
CCCCc1cc2ccccc2c(OCCN(C)C)n1,nt,5.2,-0.4,nt,0,2.6,nt,nt
CC(=O)Nc1cc2c(cc1NC(=O)Cn1nc(-c3ccccc3)ccc1=O)OCCO2,0.6,?,0.4,13,0,3.3,5%,-23
O=C(NC(=S)Nc1ccc2oc(=O)ccc2c1)c1cc2ccccc2o1,-1.9,nt,0.2,3,35,4.8,-1%,5
CCN(CC)S(=O)(=O)c1ccc(N2CCCC2)c(C(=O)OCC(=O)Nc2cc(C)on2)c1,2.3,-26,-0.3,-8,1,4.3,nt,16
CCOc1ccc(NCc2nnc(SCC(=O)Nc3nc(-c4ccccc4)cs3)n2-c2ccccc2)cc1,-0.7,nt,0.7,-14,7,-0.7,nt,11
COc1ccc(OCC(=O)NNc2c3ccccc3nc3ccccc23)cc1,27*,nt,-0.7,30,14,2.8,-1%,22
CCOC(=O)Cn1nc(CC)c2ccccc2c1=O,0.3,nt,0.0,5,-4,-0.7,2%,4

# Compound activity deposited in PubChem by several laboratories.
